UCH37 inh – inhibitors of human deubiquitinating enzyme UCH37; purified proteasome/UCH37, Ub-AMC cleavage fluorescence; inhibition, % (concentration not given with the values); 0.33% of 330,000 active;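 active means mean of two replicates above 20%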;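 further: 0% = compound-free wells with enzyme and 100% = wells lacking proteasome; stock transfer was 100 nL into about 20 µL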
Target sequence (Q9Y5K5 whole entry, looked up): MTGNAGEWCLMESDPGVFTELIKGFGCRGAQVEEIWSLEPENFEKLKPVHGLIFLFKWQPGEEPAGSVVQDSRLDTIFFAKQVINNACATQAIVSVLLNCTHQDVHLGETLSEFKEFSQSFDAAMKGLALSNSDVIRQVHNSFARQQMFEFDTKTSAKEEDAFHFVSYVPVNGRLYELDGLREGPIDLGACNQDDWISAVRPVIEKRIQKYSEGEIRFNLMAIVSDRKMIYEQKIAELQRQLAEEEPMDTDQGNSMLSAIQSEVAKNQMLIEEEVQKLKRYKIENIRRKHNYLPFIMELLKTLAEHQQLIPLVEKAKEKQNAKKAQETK
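Assay system: Proteasome-bound UCH37. Buffer or medium: pH 7.4 Tris-HCl (50 mM) with ovalbumin, ATP-MgCl2, DTT. Incubation: 30 min preincubation with enzyme, 25 min cleavage at room temperature. Measured by: fluorescence, ex 355 nm, em 460 nm. Read-out basis: percent inhibition. Control set: wells without proteasome as full block, compound-free enzyme plus substrate as uninhibited.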
E coli growth – blocks Escherichia coli growth. OD600, 23 h; stronger effect = lower value. OD600 absorbance (test concentration not listed). 0.21% of 330,000 active;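 active means OD600 absorbance below the run mean of sample wells minus 3.6 SD, in any replicate, cut at about 0.56 in these data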;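 further: stock transfer was 300 nL into about 60 µL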
HNF4A DNA FP – change in binding of human HNF4 alpha to DNA | HNF4a-FITC DNA binding, fluorescence polarization, 1 h | 0.3% of 360,000 active | activity change, % at 10 µM | AID 1224865 | P41235; in the data active means activity change above about 30%, passing the limit was not always enough;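 further: controls were the assay level and a saturating level of protein; the project sought stronger binding though the title names inhibitors; some compounds called inactive have numbers as strong as hits; positive values seem to mean higher polarization but the record does not say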
rRNA inh HTS – inhibitors of bacterial rRNA selective over humanized ribosomes | GFP signal change (wild-type ribosome), % (concentration not given with the values) | E. coli WT GFP vs humanized-ribosome RFP mutants, fluorescence, 24 h; stronger effect = lower value; DMSO median 0, no signal -100 | 1.6% of 350,000 active;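 active means significant combined selectivity score with lowered wild-type GFP, culture density cut under 30%, mutant RFP and density less affected; inactive means any of these conditions unmet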; further: one replicate is shown; some compounds called inactive have numbers as strong as hits
Beta2AR agonist – agonists of human beta-2 adrenergic receptor inducing internalization | P07550 | Am2.2-beta2AR cells, FAP receptor internalization, flow cytometry; reference of the scale not given here | response, % (no concentration beside the values) | 0.43% of 340,000 active;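 active means response above a set limit, near 3 SD of response in nonfluorescent compounds, cut at about 42% in these data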;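 further: stock transfer was 100 nL into about 11 µL; a reference agonist was the positive control; negative values mostly stem from fluorescent compounds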
ALR H2O2 inh – inhibitors of human sulfhydryl oxidase ALR; 3.8% of 290,000 active; purified ALR, DTT oxidation, H2O2 HRP-luminol luminescence; AID 485317; inhibition, % (test concentration not listed);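 active means mean and each replicate at 75% or more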;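 further: stock transfer was 7.5 nL into about 7.5 µL; 0% = neutral wells and 100% = wells with inactivated enzyme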
Target sequence (P55789 whole entry, looked up): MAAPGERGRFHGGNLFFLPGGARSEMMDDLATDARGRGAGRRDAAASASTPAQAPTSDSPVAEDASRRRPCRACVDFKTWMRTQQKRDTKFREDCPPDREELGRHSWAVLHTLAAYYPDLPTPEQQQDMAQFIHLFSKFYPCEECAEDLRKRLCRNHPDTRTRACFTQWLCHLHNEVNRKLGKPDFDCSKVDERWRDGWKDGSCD
FGF22 binding – shifts melting point of recombinant human FGF22. AID 651658. recombinant FGF22 thermal shift, SYPRO orange fluorescence; percent of sucrose octasulfate shift, DMSO zero. Q9HCT0. 1.5% of 340,000 active. calls only at 9.99 µM;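 active means melting point raised past a set limit in the mean and every replicate; three in four hits are not shown here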
Target sequence (Q9HCT0 whole entry, looked up): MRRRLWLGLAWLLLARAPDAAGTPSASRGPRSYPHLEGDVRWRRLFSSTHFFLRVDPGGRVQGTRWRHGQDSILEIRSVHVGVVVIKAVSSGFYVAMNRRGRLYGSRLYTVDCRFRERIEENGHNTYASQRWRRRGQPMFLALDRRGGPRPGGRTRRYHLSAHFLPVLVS
rRNA inh HTS OD600 – also measured in rRNA inh HTS; calls as there; OD600 change, %; measured here: OD600 growth;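 optical density of the mix in the first replicate; 0 = DMSO median and -100 = no signal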
rRNA inh HTS RFP – further read-out of rRNA inh HTS, marked with its call; RFP signal change, %; measured here: RFP humanized mutant strains;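 first replicate; 0 = DMSO median and -100 = no signal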
Starred values were filed as active, the others as inactive; i = inactive; / = not tested or not shown; & = joins results of further samples.

UCH37 inh	E coli growth	HNF4A DNA FP	rRNA inh HTS	rRNA inh HTS OD600	rRNA inh HTS RFP	Beta2AR agonist	ALR H2O2 inh	FGF22 binding	Molecule
0.3	0.7	2.3	18	7	9.6	11	-21	i	Nc1nc(SCC(=O)Nc2cc(S(=O)(=O)N3CCOCC3)ccc2Cl)n[nH]1
2.3	0.66	4.2	1	-1	0.2	-2	-3	i	O=c1[nH]c2ccccc2cc1-c1nnn(-c2ccccc2)n1
1.3	0.7	-1.8	-2	6	-0.2	-1	-13	i	S=c1nc(SCc2ccccc2)[nH]c2ccccc12
2.7	0.68	-1.0	4	19	9.1	1	-3	i	CCCCCC(=O)NC(=S)Nc1ccc(Br)cc1C
4.1	0.78	-3.4	/	/	/	5	-1	/	N#CCC(=N)N1CCN(c2ccccc2)CC1
3.1	0.74	0.1	/	/	/	-3	-5	/	Cc1ccc(S(=O)(=O)NC(CC(=O)N2CCc3ccccc32)c2ccco2)cc1 (stereo not drawn)
0.4	0.67	-2.0	/	/	/	-5	99*	/	COc1ccc(O)c(-c2cc(-c3ccccc3[N+](=O)[O-])[nH]n2)c1
/	/	2.0	-7	-16	-7.1	/	/	i	Cc1cc(C(O)c2ncc(-c3ccccc3F)[nH]2)ccc1F (stereo not drawn)
6.0	0.72	1.4	-14	-8	1.5	-8	/	i	CCOc1ccc(CN(C)C(=O)CN2C(=O)NC(c3ccccc3)(c3ccccc3)C2=O)cc1
1.0	0.72	0.1	/	/	/	6	-1	/	CN(c1ccc(OCC(=O)Nc2nc(-c3ccccc3)cs2)cc1)S(=O)(=O)c1ccc(F)cc1
/	/	-2.1	6	-4	-6.7	1	1	i	O=C(CN(Cc1ccccc1)S(=O)(=O)c1ccc2c(c1)OCCO2)N/N=C/c1cccc(Br)c1
5.7	0.67	2.0	-11	-9	5.3	-20	/	i	CCCCOc1cccc(C(=O)NC(=S)Nc2cccnc2)c1
-24	0.68	0.0	-6	-12	-0.4	-14	-8	i	CC(Oc1cc2oc(=O)c3c(c2cc1Cl)CCCC3)C(=O)NCc1ccncc1 (stereo not drawn)
-8.7	0.73	2.2	/	/	/	-13	6	/	CCCN1Cc2cccc(C(=O)Nc3ccc(C)cc3)c2C1=O
/	/	9.0	-4	2	-2.3	1	99*	i	CN1CCN(/N=C/c2ccc(N(C)c3ccccc3)cc2)CC1
3.7	0.71	-1.1	-4	-6	0.3	-7	1	i	Cc1nonc1NC(=O)CSc1nnnn1-c1ccccc1
-1.5	0.71	-1.5	/	/	/	-2	-11	/	CN(C)c1ccc(P(=O)(OC2CCCCC2)C(O)c2cccnc2)cc1 (stereo not drawn)
0.7	0.65	-3.2	0	6	-1.6	3	15	i	O=C(O)c1ccc(S(=O)(=O)N2CCCc3ccccc32)cc1
4.1	0.69	-0.3	/	/	/	0	-3	/	CCOc1cc(-c2noc(-c3ccncc3)n2)cc(Br)c1OC
4.3	0.71	3.9	-19	-16	-0.5	-4	-5	i	CCN(C(=S)NCc1ccccc1)c1ccccc1

Random excerpt: four records from the list, in no set order.
UCH37 inh	E coli growth	HNF4A DNA FP	rRNA inh HTS	rRNA inh HTS OD600	rRNA inh HTS RFP	Beta2AR agonist	ALR H2O2 inh	FGF22 binding	Molecule
0.4	0.67	-2.0	/	/	/	-5	99*	/	COc1ccc(O)c(-c2cc(-c3ccccc3[N+](=O)[O-])[nH]n2)c1
1.3	0.7	-1.8	-2	6	-0.2	-1	-13	i	S=c1nc(SCc2ccccc2)[nH]c2ccccc12
-1.5	0.71	-1.5	/	/	/	-2	-11	/	CN(C)c1ccc(P(=O)(OC2CCCCC2)C(O)c2cccnc2)cc1 (stereo not drawn)
0.7	0.65	-3.2	0	6	-1.6	3	15	i	O=C(O)c1ccc(S(=O)(=O)N2CCCc3ccccc32)cc1

(more compounds)
UCH37 inh	E coli growth	HNF4A DNA FP	rRNA inh HTS	rRNA inh HTS OD600	rRNA inh HTS RFP	Beta2AR agonist	ALR H2O2 inh	FGF22 binding	Molecule
0.9	0.68	2.0	2	7	-1.0	0	6	i	CC1=NNC(=O)C1Oc1ccccc1 (stereo not drawn)
4.5	0.67	5.6	/	/	/	1	-30	/	Cc1ccc(NC(=O)Cc2nc(CCl)cs2)cc1
5.8	0.68	-1.8	/	/	/	-5	-14	i	COC(=O)[C@H](CC(C)C)NC(=O)Nc1ccc(F)cc1
4.0	0.72	-1.2	-9	-1	1.3	9	/	i	O=C(CN1CCCC1c1cccs1)Nc1cc(S(=O)(=O)N2CCCC2)ccc1Cl (stereo not drawn)
1.2	0.69	1.8	/	/	/	-17	23	/	O=C(Cn1[nH]c(=O)c2ccccc2c1=O)Nc1cccc(-c2nnc3n2CCCCC3)c1
1.7	0.7	3.6	9	13	0.4	10	-2	i	CNc1nc(Cl)c(SC)c(NC2CCCCC2)n1
1.0	0.68	1.7	2	-5	-0.2	-6	-4	i	CCCC(=O)NCc1nc2ccccc2n1CC(=O)c1ccccc1
4.9	0.7	1.1	16	15	-2.2	-2	/	i	COc1ccc(C(=O)CSc2nnc(CNc3ccc(F)cc3)o2)cc1
3.5	0.76	0.3	/	/	/	3	57	/	CCOC(=O)c1ccccc1NC(=O)CSc1nc(N)cc(N)n1
-4.4	0.69	-1.7	/	/	/	2	-2	/	Cc1ccc(-n2nc3c(c2NC(=O)c2ccc4c(c2)OCO4)CSC3)c(C)c1
-1.0	0.75	-2.0	3	3	0.5	-7	64	i	C=CCn1c(Cc2ccccc2)n[nH]c1=S
0.8	0.66	3.7	-1	6	-1.2	-6	-3	i	COc1ccc(Cl)cc1C(=O)NNC(=O)CNC(=O)c1ccco1
0.0	/	-0.5	-3	12	-0.3	-2	-6	/	Cc1ccccc1CN1C(=O)[C@H]2Cc3c([nH]c4ccccc34)C(C)(C)N2C1=O
1.1	0.71	0.0	-1	3	-3.0	5	/	i	COc1ccc(NC(=O)C2(S(=O)(=O)c3ccc(C)cc3)CC2)cc1OC
5.0	0.67	-3.0	-11	-40	2.1	-2	12	i	Cc1ccc(S(=O)(=O)CC(=O)Nc2nc(C(C)(C)C)cs2)cc1
1.4	0.63	-0.7	-12	-21	4.6	3	/	i	CCOC(=O)C1CCCN(CC(=O)Nc2ccc(C(=O)Nc3ccccc3OC)cc2)C1 (stereo not drawn)
5.1	0.68	5.7	/	/	/	-6	-17	/	COc1ccc(CCNC(=O)c2ccc(Cl)cc2)cc1
5.1	0.69	7.0	3	5	-2.5	-4	20	i	COC(=O)C1=NN(c2ccc(OC)cc2)C2C(=O)N(c3ccccc3OC)C(=O)C12 (stereo not drawn)
1.9	0.66	0.5	17	16	1.5	2	-14	i	CC(C)CN(C(=O)CN1CCOCC1)c1c(N)n(CC(C)C)c(=O)[nH]c1=O
0.2	0.62	1.8	-19	-35	-7.6	1	-3	i	Cc1ccccc1-c1ccc(C(=O)NCc2ccccc2)o1
4.5	0.61	-4.6	-10	-9	-4.7	14	-11	i	COC(=O)c1ccc(NC(=O)c2cccc(C)c2)cc1
7.0	0.7	-0.7	-3	-7	2.8	-36	6	i	CCCS(=O)(=O)c1nc(S(=O)(=O)c2ccc(C)cc2)c(N2CCc3ccccc3C2)s1
0.1	0.61	-1.9	8	11	0.7	1	73	i	Cc1n[nH]c(C)c1S(=O)(=O)N1CCCC(C(=O)NCc2ccc(F)cc2)C1 (stereo not drawn)
/	/	1.6	/	/	/	8	-7	i	CCOC(=O)c1csc(NC(=O)Nc2cccc(Cl)c2)n1
0.1	0.68	1.5	4	7	2.0	-2	-7	i	CCC(Sc1nncn1C)C(=O)Nc1cc(C)on1 (stereo not drawn)
0.7	0.67	-0.9	9	8	0.0	-2	13	i	O=C(Nc1ccc(F)cc1F)c1c(C(F)(F)F)ccnc1Oc1ccc(Cl)cc1
0.7	0.66	-4.4	-42	-72	-20	14	0	i	O=c1oc(-c2ccc(Br)cc2)nc2ccccc12
6.6	0.66	2.2	/	/	/	-20	-13	/	Cn1c(COc2ccccc2)nnc1SCCSc1nnc(COc2ccccc2)n1C
-0.2	0.7	0.4	/	/	/	-6	/	/	Cc1ccc(NC(=O)c2ccccc2OCC(=O)c2ccccc2)cc1
/	/	1.2	7	5	0.4	/	/	i	COc1ccccc1-c1cnc(C(O)c2c(C)cccc2C)[nH]1 (stereo not drawn)
2.3	0.65	-18	-6	-12	-22	-12	-17	i	COc1ccc(C(CC(=O)N2CCCCC2)c2c(OC)cc(OC)c3c(-c4ccccc4)cc(=O)oc23)cc1 (stereo not drawn)
-0.1	0.72	1.0	/	/	/	-3	4	/	O=C(Nc1ccc(NC(=O)C2CCCN2C(=O)OCc2ccccc2)cc1)c1ccco1 (stereo not drawn)
0.5	0.68	-2.8	13	3	6.3	7	-2	i	CC(C)(C)OC(=O)NCc1ccc(CNC(=O)c2nc[nH]c2C(=O)NCc2ccccc2)cc1
3.2	/	-0.4	9	15	-0.8	-19	-15	i	CCCCN1CC(=O)N2[C@H]3c4ccc(OC)cc4OC[C@@H]3[C@H](C(=O)OCC)[C@]2(C)C1=O
2.0	0.71	-1.9	-2	-9	1.8	-6	-3	i	CCOc1cc(C(=O)O/N=C(\N)c2ccccn2)cc(OCC)c1OCC
1.2	0.74	2.2	-8	17	-1.7	-3	1	i	Cc1ccc(S(=O)(=O)N2c3ccccc3-c3c(ssc3=S)C2(C)C)cc1
/	/	-1.0	-1&-8	-10&-15	5.7&1.8	/	/	i	C[C@@H]1CN([C@@H](C)CO)S(=O)(=O)c2ccc(-c3cccc(C#N)c3)cc2O[C@@H]1CN(C)C(=O)c1ccc(F)cc1
1.6	0.73	-1.3	/	/	/	13	-4	/	COC(=O)CCC(NC(=O)OCc1ccccc1)C(=O)NC(CC(C)C)C(=O)OC (stereo not drawn)
1.6	0.68	-7.4	-1	2	0.5	-1	-7	i	CCN(Cc1ccccc1)S(=O)(=O)c1csc(C(N)=O)c1
2.3	0.7	-0.8	-5	-3	-8.1	-7	55	i	CCNC(=S)NNC(=O)c1csc2c1CCCC2
0.9	0.73	-26	-2	5	6.5	-2	-1	i	CC(C)[C@H](NC(=O)c1ccco1)C(=O)OCc1cc(=O)n2c(n1)sc1ccccc12
-5.4	0.72	3.4	6	0	0.5	9	/	i	CCOc1cc2[nH]c(=O)n(Cc3ccc(C(=O)NCCOC)cc3)c(=O)c2cc1OCC
0.8	0.72	4.0	8	7	5.6	-1	10	i	Oc1ccc(O)c(Cc2nc3ccccc3[nH]2)c1
1.6	0.75	1.4	0	10	-1.4	7	-1	i	COc1cccc(CC2(CO)CCCN(Cc3ccc4c(c3)OCCO4)C2)c1 (stereo not drawn)
/	/	0.9	12	13	-2.4	6	-18	i	COc1ccc(C(=O)CN2CCN(S(=O)(=O)c3cccc([N+](=O)[O-])c3)CC2)cc1OC
1.4	0.69	-4.5	-1	10	-2.0	-10	/	i	O=C(COC(=O)c1ncc(Cl)c(Cl)c1Cl)NC1CCCCCC1
11	0.72	98	/	/	/	-116	3	/	CC(C)N1CCc2c(sc(NC(=O)c3ccc(S(=O)(=O)N4CCOCC4)cc3)c2C#N)C1
-4.9	0.76	-0.9	-2	-5	-2.8	2	-3	i	CCOC(=O)CSc1ncnc2c1c(-c1ccccc1)cn2-c1ccc(OC)cc1
/	/	-0.8	11	19	0.0	-4	-10	i	C[N+](C)(C)CCCCCCC(=O)/C=N/O
2.5	0.72	-0.2	/	/	/	17	22	/	Cc1c(C#N)c(NC(=O)c2ccccc2)n(Cc2ccccc2)c1C
2.5	0.67	3.7	/	/	/	1	/	/	CCOC(=O)C1CCCN(S(=O)(=O)c2ccc(OC)c3ccccc23)C1 (stereo not drawn)

Screens deposited in PubChem by several laboratories.

A portion of the library, so the mix of outcomes need not match the whole.
